VACV mCherry inh: vaccinia inhibition (mCherry reporter); hit rate 0.63% among 310,000; AID 720579; Potency, µM (top dose mostly 36.5 µM), for the others: at the highest dose activity change, negative = inhibition, actives largely listed as inhibitors; Vaccinia virus mCherry reporter infection, fluorescence; about a quarter of the inactives have no number; active = well fitted inhibition curve with a large enough effect; inconclusive = small, poorly fitted or top-dose-only effect; inactive = no such curve, though single readings can be large or run the other way; tested in A549 cells; further: nearly all actives have a fitted effect of over 35% in size; inactives centre near -10
VACV Venus inh: vaccinia inhibition (Venus reporter); Vaccinia virus Venus reporter expression, fluorescence; Potency, µM (titrated, usually from 36.5 µM), without a hit: top-dose activity change, negative = inhibition, actives largely listed as inhibitors; hit rate 0.46% among 330,000; active means well fitted inhibition curve with a large enough effect; inconclusive means small, poorly fitted or top-dose-only effect; inactive means no such curve, though single readings can be large or run the other way; tested in A549 cells; further: nearly all actives have a fitted effect of over 30% in size; inactives centre near -10
Numbers without * were called inactive; i = inactive; ? = inconclusive; · = not tested or not shown; & = joins results of further samples; [ ] = remark or other dose. On the % scale 0 is the no-effect control and ±100 the full control effect; potency means the concentration at half of the fitted maximal effect.

Each structure is followed by: VACV mCherry inh	VACV Venus inh
- COc1ccc([C@@H]2CC=C(C(=O)O)[C@H](c3ccccc3F)N2S(=O)(=O)c2ccc(C)cc2)cc1OC
    i	-7%
- O=C(C1=C[C@@H](C2CC2)C[C@@H](OCCCCO)O1)N1CCN(Cc2ccc3c(c2)OCO3)CC1
    -12%	-3%
- Cc1[nH]n(-c2ccc([N+](=O)[O-])cc2)c(=O)c1/C=N/N1CCOCC1
    -2%	-10%
- CCC(c1nnnn1CCc1ccccc1)N(Cc1ccco1)Cc1cc2c(C)ccc(C)c2[nH]c1=O (stereo not drawn)
    ·	?
- CCc1nnc2c(NCc3ccccc3)nc3ccccc3n12
    -5%	-17%
- Cc1cccc(NC(=O)C2CCN(S(=O)(=O)c3cccc4nonc34)CC2)c1
    21%	-10%
- CCC(CC)C(=O)N1CCN(c2cccc(C)c2C)CC1
    -20%	-15%
- O=C(Nc1ccccc1Cl)c1cc[n+]([O-])cc1
    -11%	-5%
- COC(=O)C1=C(C)N(Cc2ccccc2)C(=NCc2ccc(OC)cc2)N[C@H]1c1ccccc1
    -23%	?
- COc1ccc(CN=C(Nc2ccccc2)SC2CC(=O)NC2=O)cc1 (stereo not drawn)
    -5%	-3%
- CS(=O)(=O)N1N=C(c2ccccc2)CC1c1ccc2nccnc2c1 (stereo not drawn)
    -26%	-9%
- CCOc1ccc(CCN2C(=S)N([C@@H](Cc3ccc(O)cc3)CN3CCC[C@@H]3CN3C(=S)NC[C@@H]3CC(C)C)C[C@@H]2Cc2ccc(O)cc2)cc1
    ?	?
- O=C(O)C1C2C=CC(C2)C1C(=O)NCCCc1ccccc1 (stereo not drawn)
    -15%	-10%
- Cc1ccc(NC(=S)NCC23C=CC(O2)C2C(=O)N(c4ccc(C)cc4)C(=O)C23)cc1 (stereo not drawn)
    -2%	0%
- CCOC(=O)c1c(NC(=O)C(C)Sc2c[nH]c3ccccc23)sc2c1CCC2 (stereo not drawn)
    ?	-23%
- COc1ccc(/C=N/NC(=O)C(=O)N2CCN(c3ccccc3OC)CC2)cc1
    -9%	-17%
- Cc1ccc(NC(=S)NC2CCCC2)cc1C
    -14%	-10%
- CC1CCN(CCOCCOc2ccc(Cl)cc2Br)CC1
    -22%	-22%
- Cc1ccc(NC(=O)CN2C(=O)COc3ccc(S(=O)(=O)N4CCOCC4)cc32)c(Cl)c1
    -3%	-9%
- CCOC(=O)C1(C)CCCCCN1C(=O)/C=C/c1ccccc1 (stereo not drawn)
    i	2%
- O=C(NNc1cc(Cl)cc(Cl)c1)C1CCC1
    -20%	-11%
- CC1(C)C=Cc2cc3ccc(=O)oc3cc2O1
    -22%&25%	-25%&4%
- Cc1ccc(S(=O)(=O)N2C3CCCCC3O[C@H]2CC(=O)c2cccc3ccccc23)cc1 (stereo partly drawn)
    0%	-18%
- CN1CCCN(S(=O)(=O)c2ccccc2)c2nc3ccccc3nc21
    -17%	-10%
- CCOc1ccc(NC(=O)c2ccc3c(c2)c(C)c(C)n3Cc2ccc(F)cc2)cc1
    -14%	-18%
- Cc1ccccc1NC(=O)C1CCN(S(=O)(=O)c2c(C)noc2/C=C/c2ccco2)CC1
    -5%	-11%
- COC1CCCCC1NCCc1ccccc1 (stereo not drawn)
    i	1%
- COc1ccccc1NS(=O)(=O)c1cccc(C(=O)OCC(=O)Nc2cc(C)on2)c1
    ·	7%
- c1nc(NCCN2CCOCC2)c2cc(-c3ccc4c(c3)OCO4)ccc2n1
    i	-14%
- Cc1ccc(CN2C(=O)c3oc4ccc(C)cc4c(=O)c3C2c2ccc(O)cc2)cc1 (stereo not drawn)
    -12%	-11%
- Cc1ccc(S(=O)(=O)N2C[C@H]3C(=O)C[C@@H]4C(=O)N(c5ccccc5)C(=O)[C@@H]4[C@@H]3C[C@H]2c2cccs2)cc1
    43%[activator]	10%
- CC(=O)c1c(C)oc2ccc(NS(=O)(=O)c3ccc(C(=O)O)cc3)cc12
    i	-4%
- Cc1ccc(S(=O)(=O)NOCc2ccccc2)cc1
    i	-5%
- CCOc1ccc(NC(=O)CCNS(=O)(=O)c2cccc3nonc23)cc1
    -17%&-15%	-4%&-4%
- COc1cccc(/C=C/C(=O)Nc2ccc(N3CCOCC3)cc2)c1OC
    -29%	3%
- O=[N+]([O-])c1cc([N+](=O)[O-])c2oc(-c3ccccc3)c(Br)c2c1O
    -2%	?
- Cc1sc2nc(CSc3ccc([N+](=O)[O-])c(C(F)(F)F)c3)[nH]c(=O)c2c1C
    i	-14%
- C[C@H]1CN([C@@H](C)CO)C(=O)CCCn2cc(nn2)CO[C@@H]1CN(C)C(=O)Nc1cccc(C(F)(F)F)c1
    -5%	-4%
- O=C(Nc1ccccc1[N+](=O)[O-])C1=C(O)CCn2c1nc1ccccc12
    -3%	?
- O=C(Cc1cccc(NC(=O)C2CCN(S(=O)(=O)c3cccc([N+](=O)[O-])c3)CC2)c1)Nc1cccc(C(=O)N2CCOCC2)c1
    i	-3%
- CCOc1ccc(OCC)c(NC(=O)c2cnc3c(-c4ccccc4)c(C)nn3c2C)c1
    -15%	-15%
- COc1ccccc1C(=O)CC1(O)C(=O)N(CC(N)=O)c2ccccc21 (stereo not drawn)
    -5%	-8%
- COc1ccc(C(=O)NCCC2=CCCCC2)cc1[N+](=O)[O-]
    -13%	-17%
- O=C(Nc1ccc(S(=O)(=O)Nc2nccs2)cc1)c1cc(-c2ccccn2)nc2ccccc12
    -3%	-3%
- CNCCN(C)c1nc(-c2cccs2)nc2ccccc12
    -21%	-5%
- O/N=C\c1ccc(-c2ccccc2)o1
    -14%	-4%
- O=C(C1=C[C@@H](c2ccccc2)C[C@@H](OCCCCO)O1)N1CCOCC1
    -14%	-2%
- Cc1ccc(C(=O)OC(C(=O)Nc2ccc(Cl)cc2C(F)(F)F)c2ccccc2)cc1 (stereo not drawn)
    -16%	-19%
- CCCCN(CCCC)CCNC(=O)CN1C(=O)CSc2ccc(S(=O)(=O)N3CCOCC3)cc21
    -12%[7.34 µM]	-9%[7.34 µM]
- COc1ccccc1N1CCN(S(=O)(=O)c2ccc(-n3cnnn3)cc2)CC1
    -8%	-7%
- Cc1ccc(C(=O)COC(=O)c2cc(C)no2)c(C)c1
    -21%	-6%
- CCN1CCN(C(=O)c2cc3cc(F)ccc3[nH]2)CC1
    -14%	-14%
- CCS(=O)(=O)c1ccc(-c2csc(-c3ccc(Cl)cc3)n2)c(Cl)c1Cl
    ·	-1%
- Cn1c(SCC(=O)OC2CCCCC2)nnc1-c1ccc(S(=O)(=O)N2CCCC2)cc1
    i	-3%
- COc1cccc(NC(=O)CN2C(=O)NC(C)(c3ccc(C)cc3)C2=O)c1 (stereo not drawn)
    i	-4%
- COCCN1C(=O)N[C@@H](CCc2ccccc2)[C@H](C(C)=O)[C@H]1C
    -21%	-8%
- CC1CCN(CCCNC(=O)CN2CCN(Cc3ccc(Cl)cc3)C2=O)CC1
    ?	-16%
- COc1ccc(NC(=O)N2Cc3ccccc3CC2C(=O)NC(C)(C)C)cc1 (stereo not drawn)
    -9%	-1%
- CCOc1ccccc1NS(=O)(=O)c1cc2c3c(c1)CC(=O)N3CCC2
    -8%	-15%
- Cc1cc2nc(C(C)(C)C)c(Cc3cccc(F)c3)n2c(C)c1Br
    6%	-1%

The listing continues:
Each structure is followed by: VACV mCherry inh	VACV Venus inh
- CCc1ccccc1NC(=O)Cn1c(=O)ccc2cc(S(=O)(=O)N3CCCC3)ccc21
    -3%	7%
- Cc1ccc(-c2csc(Nc3ccccn3)n2)cc1
    ?	-9%
- CCOC(=O)[C@]12CCC=C1N(Cc1ccc(Cl)cc1Cl)C(=O)[C@H](CC(=O)NCCCOC)C2
    14%	-12%
- Cc1ccc(N(C(=O)Cc2cccs2)C(C(=O)NC2CCCCC2)c2ccccn2)cc1C (stereo not drawn)
    -28%	-27%
- Oc1ccc(N2CCN(C(c3ccncc3)c3nnnn3C3CCCC3)CC2)cc1 (stereo not drawn)
    -5%	7%
- CCc1c(C)c2cc3c(c(C)c2oc1=O)OCN(CCc1ccccc1F)C3
    -30%	-2%
- O=C1OC(c2ccccc2)(c2ccc3cc(O)ccc3c2)c2ccccc21 (stereo not drawn)
    7.9µM*	?
- COc1ccccc1NC(=O)COC(=O)C1CC1
    i	-2%
- COc1ccc(NC(=O)c2ccc3c(SCC(=O)O)c4c(nc3c2)CCCC4)cc1OC
    -4%	-7%
- CN(CC(=O)Nc1ccc(N2CCOCC2)cc1)C(=O)c1cc(F)c(F)cc1Cl
    -8%	1%
- CCOc1ccc(NC(=O)c2sccc2-n2cccc2)cc1
    i	-11%
- COC(=O)C1=C(C)N(C(C)C)C(=O)C1(NC(C)=O)C(F)(F)F (stereo not drawn)
    -7%	4%
- COc1ccc(NC(=O)c2oc3ccccc3c2NC(=O)c2cc(=O)c3cc(Cl)ccc3o2)cc1
    -4%	-7%
- O=C(CSc1ccsc1[N+](=O)[O-])NCc1ccccc1
    -30%	-14%
- Cc1cccc(C(=O)NCCC(=O)Nc2nc(C)c(Cc3ccc4c(c3)OCO4)s2)c1
    i	-13%
- Cc1ccc(NC(=O)/C(C#N)=C/c2ccc(-c3ccc(Cl)c(C(=O)O)c3)o2)cc1C
    2%	7%
- NC(=O)C1CCN(C(=O)c2ccccc2CCc2ccccc2)CC1
    i	-14%
- CNC(C)C(=O)NC(C(=O)NC(C)C(=O)NNc1ccccc1)C(C)C (stereo not drawn)
    i	-1%
- O=C(/C=C/c1cccnc1)c1ccc(NC(=O)c2cccc(Br)c2)cc1
    -21%	-22%
- Cc1cc(C)cc(Nc2ncnc3onc(-c4ccc(F)cc4)c23)c1
    -14%	-4%
- Cc1ccc(C(=O)N/C(=C\c2ccco2)C(=O)N2CCCCC2)cc1
    -19%	10%
- CCCCC(C)(O)C/C=C/[C@H]1[C@H](O)CC(=O)[C@@H]1CCCCCCC(=O)O (stereo partly drawn)
    i[3.33 µM]	-8%[3.33 µM]
- Cc1ccc2cc(C#N)c(SCC(=O)N3CCCC3)nc2c1
    -7%	-9%
- Cc1ccc(S(=O)(=O)N2CC3C(=O)C[C@@H](c4ccccc4)N(S(=O)(=O)c4ccccc4Cl)C3CC2c2ccccc2)cc1 (stereo partly drawn)
    i	3%

Structural class, the compounds so far with an aryl methoxy group (14)
Each structure is followed by: VACV mCherry inh	VACV Venus inh
- COc1ccc([C@@H]2CC=C(C(=O)O)[C@H](c3ccccc3F)N2S(=O)(=O)c2ccc(C)cc2)cc1OC
    i	-7%
- COC(=O)C1=C(C)N(Cc2ccccc2)C(=NCc2ccc(OC)cc2)N[C@H]1c1ccccc1
    -23%	?
- COc1ccc(CN=C(Nc2ccccc2)SC2CC(=O)NC2=O)cc1 (stereo not drawn)
    -5%	-3%
- COc1ccc(/C=N/NC(=O)C(=O)N2CCN(c3ccccc3OC)CC2)cc1
    -9%	-17%
- COc1ccccc1NS(=O)(=O)c1cccc(C(=O)OCC(=O)Nc2cc(C)on2)c1
    ·	7%
- COc1cccc(/C=C/C(=O)Nc2ccc(N3CCOCC3)cc2)c1OC
    -29%	3%
- COc1ccccc1C(=O)CC1(O)C(=O)N(CC(N)=O)c2ccccc21 (stereo not drawn)
    -5%	-8%
- COc1ccc(C(=O)NCCC2=CCCCC2)cc1[N+](=O)[O-]
    -13%	-17%
- COc1ccccc1N1CCN(S(=O)(=O)c2ccc(-n3cnnn3)cc2)CC1
    -8%	-7%
- COc1cccc(NC(=O)CN2C(=O)NC(C)(c3ccc(C)cc3)C2=O)c1 (stereo not drawn)
    i	-4%
- COc1ccc(NC(=O)N2Cc3ccccc3CC2C(=O)NC(C)(C)C)cc1 (stereo not drawn)
    -9%	-1%
- COc1ccccc1NC(=O)COC(=O)C1CC1
    i	-2%
- COc1ccc(NC(=O)c2ccc3c(SCC(=O)O)c4c(nc3c2)CCCC4)cc1OC
    -4%	-7%
- COc1ccc(NC(=O)c2oc3ccccc3c2NC(=O)c2cc(=O)c3cc(Cl)ccc3o2)cc1
    -4%	-7%
